PINK1 expr mod: A Quantitative High throughput Screen to Identify Chemical Modulators of PINK1 Expression; PINK1 immunofluorescence, high-content cytometry, 24 h; Potency, µM (highest dose often 76.6 µM), without a hit: at the top dose activation (PINK1 increase), most hits filed as activators; 0.2% of 410,000 active; AID 624263, 2012; active = well fitted activation curve with a large enough effect; inconclusive = small, poorly fitted or top-dose-only effect; inactive = flat fitted curve, though single readings scatter; cell line not stated here;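 further: % of control where 0% means no effect; nearly all actives have a fitted effect of over 65% in size; a mitochondrial uncoupler was the plate control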
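PINK1 protein, normally rapidly degraded, was detected by immunofluorescence after 24 hour compound treatment of a stable cell line. Titration data (5 concentrations) came from laser-scanning cytometry, with CCCP-treated wells as controls.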
* = called active by the depositor. Potency means the concentration at half of the fitted maximal effect. The list is partial, so the mix of outcomes need not match the whole.

Start of the listing, in advance, 2 compounds:
SMILES	PINK1 expr mod
CCc1c(C)sc2c1CCN(C(=O)Nc1ccccc1C(=O)OC)C2c1ccc(OC)cc1 (stereo unspecified)	1.6%
CCOc1ccc(CNC(=O)C2CCCN(c3nn4cc(-c5ccc(F)cc5)nc4s3)C2)cc1 (stereo unspecified)	-1.6%

This part in full, repeating the preview:
SMILES	PINK1 expr mod
CCc1c(C)sc2c1CCN(C(=O)Nc1ccccc1C(=O)OC)C2c1ccc(OC)cc1 (stereo unspecified)	1.6%
CCOc1ccc(CNC(=O)C2CCCN(c3nn4cc(-c5ccc(F)cc5)nc4s3)C2)cc1 (stereo unspecified)	-1.6%
COc1cccc(NC(=O)Cn2cc(C(=O)c3ccco3)c3ccccc32)c1	-0.6%
COc1ccc(C(=O)Nc2ccccc2SCc2cc(=O)c3cccc(C)c3[nH]2)cc1	2.3%
CCN(C(=O)Cn1cc(S(=O)(=O)N2CCN(c3ccccc3F)CC2)c2ccccc2c1=O)c1ccc(C)c(C)c1	3.3%
Cc1ccc(C(C)C)c(OCC(=O)Nc2ccc3c(c2)nc(CCNC(=O)c2ccco2)n3C)c1	3.4%
CCCC(=O)OCc1cnc(C)c2oc(=O)c(C(=O)Nc3ccc(F)cc3C)cc12	-1.2%
COc1ccc(CCNc2nc3ccccc3c3nc(-c4cccc(C)c4)nn23)cc1OC	0.8%
COc1cc(OC)cc(-c2nc3nc(C)c(CCC(=O)Nc4ccc(C)c(C)c4)c(C)n3n2)c1	-0.3%
CC(C)(C)c1ccc(-c2nnc(-c3ccccc3NC(=O)c3cccc(C(F)(F)F)c3)o2)cc1	18%
CCOc1[nH]c(/N=C/c2ccc(OC)cc2)c(C#N)c1C#N	1.0%
O=C(CN1C(=O)CC(c2ccco2)Sc2ccccc21)Nc1ccc(OC(F)(F)F)cc1 (stereo unspecified)	4.3%
Cc1ccccc1Cn1c(=O)n(CCCCCC(=O)NCc2ccc3c(c2)OCO3)c(=O)c2sccc21	-0.7%
Cc1ccc(C)c(NC(=O)CCCn2c(C)c3cnn(-c4ccccc4)c(=O)c3c2C)c1	2.1%
CCOC(=O)c1c(C)oc2c1c(/C=N/c1ccccn1)c(O)c1ccccc12	-0.1%
CCCC(=O)OCc1cnc(C)c2oc(=O)c(C(=O)Nc3ccccc3)cc12	-0.1%
COCC(=O)Nc1cc(C(=O)N2CCSCC2)cc2nc(-c3ccccc3)n(C)c12	0.7%
COc1cccc(/C=C/c2nc(C#N)c(NCCc3ccc(OC)c(OC)c3)o2)c1	0.8%
Cc1ccc(CNC(=O)c2cccn2-c2nnc(N3CCCC3)s2)cc1	-0.1%
CC(CNC(=O)c1cc2cc(S(=O)(=O)N3CCCCC3)ccc2n1C)c1ccccc1 (stereo unspecified)	0.3%
Cc1cc(Br)ccc1NC(=O)CCNS(=O)(=O)c1cccc2nonc12	-0.3%
O=S1(=O)c2ccccc2N(Cc2cccc(C(F)(F)F)c2)c2ccccc21	-1.9%
CCOc1ccc(CNC(=O)CSc2nnc(C)c3c(C)n(-c4ccccc4)nc23)cc1	1.9%
CCOc1ccc(CCNC(=O)C2COc3ccccc3C2)cc1OCC (stereo unspecified)	0.2%

A second format for some results above.
SMILES,PINK1 expr mod
Cc1ccccc1Cn1c(=O)n(CCCCCC(=O)NCc2ccc3c(c2)OCO3)c(=O)c2sccc21,-0.7%
COCC(=O)Nc1cc(C(=O)N2CCSCC2)cc2nc(-c3ccccc3)n(C)c12,0.7%
CCCC(=O)OCc1cnc(C)c2oc(=O)c(C(=O)Nc3ccccc3)cc12,-0.1%
Cc1ccc(CNC(=O)c2cccn2-c2nnc(N3CCCC3)s2)cc1,-0.1%
CC(CNC(=O)c1cc2cc(S(=O)(=O)N3CCCCC3)ccc2n1C)c1ccccc1 (stereo unspecified),0.3%
CCOC(=O)c1c(C)oc2c1c(/C=N/c1ccccn1)c(O)c1ccccc12,-0.1%
Cc1cc(Br)ccc1NC(=O)CCNS(=O)(=O)c1cccc2nonc12,-0.3%

Next section.
SMILES	PINK1 expr mod
Cc1cc(C)nc(-c2cccc3c2OC(CNC(=O)c2ccc(Cn4nc(C)cc4C)cc2)C3)n1 (stereo unspecified)	0.2%
Cc1cc(NC(=O)c2ccccc2F)ccc1-c1nc2ccccc2s1	2.0%
O=S(=O)(c1ccc(Cl)cc1)c1nc(-c2ccccc2Br)oc1NCc1ccccc1	2.8%
N#C/C(=C\c1ccc(Cl)cc1)c1nc(-c2cc3c(ccc4ccccc43)oc2=O)cs1	-0.1%
Cc1cccc(NC(=O)c2oc3ccc(S(=O)(=O)N4CCCCC4)cc3c2C)c1C	3.9%
COc1ccc(CNCc2c(C(=O)O)c(C)n(Cc3ccccc3C)c2C)cc1OC	1.3%
O=c1[nH]c2ccc(NCc3ccc(-c4ccc(Br)cc4)o3)cc2[nH]1	4.7%
CCN(CCC#N)c1ccc(/C=C/c2ccnc3ccccc23)cc1	1.6%
Cc1ccc(S(=O)(=O)NCCc2cn3c(C)csc3n2)cc1	1.2%
CCOC(=O)c1c(C)[nH]c(C)c1S(=O)(=O)N(C)CC(=O)Nc1cccc(C(F)(F)F)c1	3.0%
CCN(c1ccc(OC)cc1)S(=O)(=O)c1nnc(NC(=O)c2ccccc2C)s1	-0.6%
COc1ccccc1CNC(=O)c1ccccc1NC(=O)c1nsc2ccccc12	0.4%
Cc1cccn2c(=O)c3cc(C#N)c(=O)n(-c4nnc(SCc5ccccc5F)s4)c3nc12	1.0%
CCOc1ccccc1NC(=O)c1sc2nc3n(c(=O)c2c1C)CCCCC3	-0.6%
COc1ccc(-c2nc3scc(CCNS(=O)(=O)c4c(C)cc(C)cc4C)n3n2)cc1OC	0.4%
Cc1ccc(C)c(N2CCN(C(=O)Cn3c(-c4cccs4)cc4ccccc43)CC2)c1	-1.9%
COc1cccc(CN2CCc3nnc(CCc4ccccc4)n3CC2)c1OC	0.5%
O=C(Cn1ccn(-c2ccc(F)c(F)c2)c(=O)c1=O)NCc1ccccc1	0.6%
Cc1cccc(C)c1NC(=O)Cn1c(=O)n(Cc2ccccc2Cl)c(=O)c2cccnc21	-0.7%
CC(C)N(Cc1ccccc1)S(=O)(=O)c1ccc(N2CCCCS2(=O)=O)cc1	2.0%
Cc1ccc(S(=O)(=O)Nc2ccc3nc(-c4ccc(F)cc4)oc3c2)cc1	18%
COc1ccccc1C1C(C(=O)Nc2ccccc2)=C(C)Nc2nc(-c3ccccc3)nn21 (stereo unspecified)	3.3%
Cc1ccc2[nH]c(=O)c(CN(Cc3ccccc3)Cc3nnnn3Cc3ccco3)cc2c1	8.3%
O=C(Cn1c(-c2cccs2)cc2cc(F)ccc21)N1CCCCC1	-0.1%
CC(C)c1ccc(OCC(=O)Nc2cc(-c3nc4ncccc4o3)ccc2Cl)cc1	2.2%
O=C(NCc1ccc2c(c1)CCN2C(=O)c1ccncc1)c1cccc(F)c1	1.5%
CCOC(=O)c1ccc(NC(=O)CN2C(=O)C(C)(C)c3ccccc32)cc1	0.1%
O=C(Nc1ccccc1C(F)(F)F)N1CCC2(CC1)Oc1ccccc1C(=O)N2Cc1ccccc1F	0.7%
Cc1cc(C)c(/C=C/c2onc(C)c2S(=O)(=O)N2CCC(C(=O)Nc3ccc(Cl)cc3C)CC2)c(C)c1	0.5%
O=C(Nc1nc2ccc(F)cc2s1)c1nc(SCc2ccccc2F)ncc1Cl	0.4%
CCn1cc(C(=O)NCCCOC(C)C)c(=O)c2cc(S(=O)(=O)N(C)C3CCCCC3)ccc21	1.1%
Cc1ccc2oc3c(SCc4nc5ccccc5[nH]4)nc(C)nc3c2c1	0.8%
COc1ccc(NC(=O)Cn2nc(SC)c(S(=O)(=O)c3ccc(C)cc3)c2N)cc1OC	-0.6%
COC(=O)c1ccccc1NC(=O)c1c(NC(=O)c2ccco2)sc2c1CCC(C(C)(C)C)C2 (stereo unspecified)	0.7%
CCOC(=O)C1=C(CN2CCN(c3ccc(Cl)cc3)CC2)NC(=O)NC1c1ccc(F)cc1 (stereo unspecified)	2.0%
CCN1C(=O)c2ccccc2S(=O)c2ccc(C(=O)N3CCN(c4ccccc4OC)CC3)cc21 (stereo unspecified)	-0.9%
COc1cc(CN(CC2CCCO2)C(=O)c2ccc(F)cc2)cc(OC)c1OC (stereo unspecified)	0.8%
Cc1ccc(Cl)cc1NC(=O)C(NS(=O)(=O)c1ccc2c(c1)CCC(=O)N2)c1ccccc1 (stereo unspecified)	-0.3%
CC(C)Cc1ccc(S(=O)(=O)N2CCN(Cc3noc(CCC(=O)N4CCCCC4)n3)CC2)cc1	1.6%
CC12CN3CC(c4ccccc4)(CN(C1)C3c1ccc(O)cc1)C2=O (stereo unspecified)	-0.8%
Cc1ccc(-n2c(=O)c3c(C)c(C)sc3n(CC(=O)c3ccc(Cl)cc3)c2=O)cc1C	-0.6%
Cc1oc(-c2ccc(Cl)cc2)nc1CSc1nc2ncccc2[nH]1	0.7%
CC1CCN(c2oc(-c3cccs3)nc2S(=O)(=O)c2ccc(Cl)cc2)CC1	0.6%
O=[N+]([O-])c1ccc(O/N=[N+](\[O-])N2CCCCC2)c([N+](=O)[O-])c1	-1.1%
Cc1ccc2c(C)nc(N3CCCC(C(=O)NC(C)(C)CO)C3)nc2c1 (stereo unspecified)	-0.7%
CCCCNC(=O)Cn1nc(N2CCN(c3ccccc3OC)CC2)ccc1=O	4.4%
Cc1ccc(Cl)cc1N1CCN(C(=O)c2ccc3c(c2)N(Cc2ccccc2F)C(=O)c2ccccc2S3=O)CC1 (stereo unspecified)	0.2%
CCN(CC)S(=O)(=O)c1ccc2c(c1)N(CC(=O)Nc1c(C)cc(C)cc1C)C(=O)CS2	1.6%
COC(=O)CC1Oc2ccc(F)cc2-n2cc(-c3ccc(C)cc3)nc21 (stereo unspecified)	12%
CCC(C)NC(=O)CSc1nc2n[nH]c(C)c2c(=N)n1-c1cc(Cl)ccc1C (stereo unspecified)	1.8%
CCn1cc(C(=O)NCc2ccccc2)c(=O)c2cc(S(=O)(=O)N3CCCCCC3)ccc21	2.2%
Cc1cccc(C(=O)N(Cc2ccccc2F)C2CCS(=O)(=O)C2)c1 (stereo unspecified)	4.2%
COc1cccc(OCCn2c(-c3ccc(Cl)cc3)nc3ccccc3c2=O)c1	1.4%
CCOc1ccc(C(=O)N2CCC(c3nnc(-c4ccccc4OC)o3)CC2)cc1	2.9%
COc1ccc(C(=O)NCC(c2ccc(N(C)C)cc2)N2CCc3ccccc32)cc1 (stereo unspecified)	-1.2%
COc1cc(CNCCSc2nnnn2C)ccc1OCc1c(F)cccc1Cl	0.5%
COc1ccc(OC)c(NC(=O)CN2C(=O)CC(c3ccco3)Sc3ccccc32)c1 (stereo unspecified)	2.7%
Cc1cc(N(CCO)Cc2ccccc2)n2nc(-c3ccc(C(C)(C)C)cc3)nc2n1	0.3%
CC(NC(=O)Cc1ccc(NC(=O)N2CCSc3ncccc32)cc1)c1ccccc1 (stereo unspecified)	-0.6%
Cc1c(C(=O)Nc2ccc(-n3c(C)nc4ccccc4c3=O)cc2)cccc1[N+](=O)[O-]	0.4%
Next structures.
SMILES	PINK1 expr mod
COc1ccccc1CNC(=O)C(NS(=O)(=O)c1ccc2c(c1)CCN2C(C)=O)C(C)C (stereo unspecified)	0.8%
CCOc1ccc(CN(CCc2ccc3c(c2)OCO3)Cc2cc(OC)c(OC)cc2OC)cc1	-0.7%
Cc1cccc(OCC(=O)Nc2ccc3nc(Nc4cccc(C(F)(F)F)c4)cc(C)c3c2)c1	3.4%
COc1ccc(Cn2c(=O)[nH]c3cc(C(=O)N4CCN(c5cc(Cl)ccc5C)CC4)ccc3c2=O)cc1	3.1%
CCCCNC(=O)c1ccc2c(c1)NC(=O)C(CS(=O)(=O)Cc1ccc(F)cc1Cl)N2 (stereo unspecified)	-1.0%
CCC(C)NC(=O)CSc1nc2c(sc3ccccc32)c(=O)n1Cc1ccccc1Cl (stereo unspecified)	1.8%
CCOC(=O)c1noc2nc(C)n(Cc3ccc([N+](=O)[O-])cc3)c(=O)c12	0.1%
Cc1ccc(C)c(C(=O)CSc2nc3cc(C(=O)NC4CCCC4)ccc3c(=O)n2CC2CCCO2)c1 (stereo unspecified)	2.7%
O=C(NCc1ccccc1F)C1CCCN(C(=O)N2CCOc3ccccc32)C1 (stereo unspecified)	-0.2%
Cc1ccc(C)c(OCCn2c(C3CC(=O)N(Cc4ccc(F)cc4)C3)nc3ccccc32)c1 (stereo unspecified)	-1.8%
O=C(NCCc1ccc(Cl)cc1)C1COc2ccccc2C1 (stereo unspecified)	1.5%
CC(C)c1cccc(C(C)C)c1NS(=O)(=O)c1cccs1	1.3%
O=[N+]([O-])c1ccccc1S(=O)(=O)NCc1ccccn1	-0.3%
O=C(NC1CCCCC1)c1ccc(Cn2c(SCc3ccccc3F)nc3cccnc32)cc1	-0.3%
COc1cc(C2C(C(=O)Nc3ccccc3C)=C(C)Nc3ncnn32)ccc1OCC(N)=O (stereo unspecified)	-4.9%
COCc1cc(C)nc2sc3c(c12)NC(c1ccccc1C(=O)O)N(c1ccc(OC)cc1)C3=O (stereo unspecified)	1.5%
CC(C)OCCCn1c(=O)c2ccccc2n2c(-c3ccccc3F)nnc12	-0.9%
